Source: PubChem
Arbovirus anti – antivirals against arbovirus infection, primary screen, cell-based, full library, 10K replicate subset | arbovirus infection cell-based antiviral screen | 200,000 tested, 0.37% active | AID 1251, 2008 | inhibition, % at 10 µM;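 active = inhibition from about 30%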;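 also: bluetongue infection of BSR cells; cell survival read as ATP light after 72 h; 0% = infected wells without compound and 100% = uninfected wells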
RecA intein inh – Mtb RecA intein splicing inhibitors, primary screen, biochemical, fluorescence, HTS; Protein RecA (Mycobacterium tuberculosis (strain ATCC 25618 / H37Rv)), P9WHJ3; cell-free RecA intein splicing; inhibition, %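 (about 9 µM by stock and volumes)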; 290,000 tested, 0.75% active; in the data active = inhibition above about 30%; inconclusive = no clear call, values can overlap the other calls;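 also: 0% = vehicle wells and 100% = reference inhibitor control wells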
Target sequence (P9WHJ3 whole entry, looked up): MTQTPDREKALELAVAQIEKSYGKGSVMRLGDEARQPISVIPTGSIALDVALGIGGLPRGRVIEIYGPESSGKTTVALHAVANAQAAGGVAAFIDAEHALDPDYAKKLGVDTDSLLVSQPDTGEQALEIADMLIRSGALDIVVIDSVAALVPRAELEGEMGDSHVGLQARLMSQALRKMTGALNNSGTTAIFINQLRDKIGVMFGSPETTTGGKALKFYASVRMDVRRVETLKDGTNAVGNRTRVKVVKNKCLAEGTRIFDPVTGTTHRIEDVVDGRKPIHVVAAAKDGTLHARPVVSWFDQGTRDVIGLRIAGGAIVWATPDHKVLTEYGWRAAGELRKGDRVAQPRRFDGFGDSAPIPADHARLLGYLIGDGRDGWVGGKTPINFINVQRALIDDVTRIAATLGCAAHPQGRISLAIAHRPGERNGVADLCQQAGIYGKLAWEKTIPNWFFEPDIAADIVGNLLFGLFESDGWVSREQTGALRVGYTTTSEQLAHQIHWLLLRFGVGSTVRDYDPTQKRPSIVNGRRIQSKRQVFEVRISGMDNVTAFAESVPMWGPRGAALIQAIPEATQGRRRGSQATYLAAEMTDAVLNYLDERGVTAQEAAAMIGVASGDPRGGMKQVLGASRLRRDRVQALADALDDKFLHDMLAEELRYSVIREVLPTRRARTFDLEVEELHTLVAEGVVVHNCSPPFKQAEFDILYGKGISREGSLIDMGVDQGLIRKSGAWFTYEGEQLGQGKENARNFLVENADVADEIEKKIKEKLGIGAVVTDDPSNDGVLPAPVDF
YopH PTP inh – YopH tyrosine phosphatase inhibitors, primary screen, biochemical, fluorescence Ex485/Em525; YopH tyrosine phosphatase [Yersinia enterocolitica]; 140,000 tested, 0.16% active; inhibition, %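 (about 10 µM by stock and volumes)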; AID 898, 2007;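 active = inhibition of 50% or more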;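 also: controls were vehicle for no effect and minimum signal wells for full effect; inactives centre near -20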
Mtb bLac sens – beta-lactam sensitization of Mtb H37Rv, H37Rv | M. tuberculosis H37Rv growth with meropenem, percent inhibition; hits of this screen are not shown here | inhibition, % at 25 µM | 330,000 tested, 0.27% active | AID 434955, 2010;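 active = about 74% or more and at least 40 points above the plate without the antibiotic, then above 30% in a dose series; inconclusive = first-round hits that could not be retested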;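 also: growth measured after seven days incubation then overnight dye step; 0% = bacteria only wells and 100% = bacteria with antibiotic; twin plates without the antibiotic show which effects depend on it; some results filed as inactive read as strong as hits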
Mtb growth – M. tuberculosis H37Rv growth inhibitors, H37Rv strain (AID 1626). 220,000 tested, 0.95% active. M. tuberculosis H37Rv growth inhibition; higher % means a stronger effect. inhibition, % at 10 µM, or IC50 in µM where a hit was titrated;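 active = confirmed in a dose series; inconclusive = inhibition above 80% but not taken into the dose series; inactive = below 80% or under 30% at every dose of the series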;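 also: bacteria incubated seven days before Alamar blue readout; 0% = bacteria only wells and 100% = bacteria with antibiotic wells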
Arbovirus anti repeat – also measured in Arbovirus anti; calls as there; inhibition, %; measured here: 10K subset replicate screen; many hits read low in the repeat;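 first of two repeat runs on a subset; 0% = infected and 100% = uninfected wells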
An asterisk follows results filed as active; ? = inconclusive; . = no result given.

SMILES | Arbovirus anti | RecA intein inh | YopH PTP inh | Mtb bLac sens | Mtb growth | others
O=C(CCN1CCN(Cc2ccccc2)CC1)NNC(=O)Nc1cccc([N+](=O)[O-])c1 | . | -0.5 | . | 4 | .
Cc1ccc(C)c(C(=O)COC(=O)C2CCN(c3ccc(C(F)(F)F)cn3)CC2)c1 | . | 7.6 | . | -7 | .
CCc1nn2c(=O)cc(CSCC(=O)Nc3ccccc3F)nc2s1 | . | -1.1 | . | -3 | .
Cc1ccc(-n2ccc(-c3nn(-c4ccccc4)ccc3=O)n2)cc1 | 3 | 1.4 | . | -4 | 11%
COc1ccc(N(C(C)=O)C2C=CS(=O)(=O)C2)c(OC)c1 (centres undefined) | 6 | -0.5 | -10 | 0 | 2%
CCOc1ccc(OCCSc2nnnn2-c2ccccc2)cc1 | 0 | -3.8 | -2 | -3 | 20%
CCCCn1c(O)c(N=NC(=O)c2ccco2)c2ccccc21 | -10 | 7.8 | -30 | 13 | 5%
CC(=O)Nc1ccc(C)c(NS(=O)(=O)c2cccc(C(F)(F)F)c2)c1 | . | -0.5 | . | -8 | -5%
COc1cccc(NP(=O)(Oc2ccccc2Cl)Oc2ccccc2Cl)c1 | -45 | 8.6 | -21 | -5 | -2%
COC(=O)C(Cc1c[nH]c2ccccc12)N1CCS(=O)(=O)CC1 (centres undefined) | 4 | 0.1 | . | 2 | 0%
CC(=O)Nc1ccc(S(=O)(=O)Oc2ccc(/C=N/N=C3/NC(=O)C(CC(=O)O)S3)cc2)cc1 (centres undefined) | 10 | 3.5 | . | 2 | 1%
COc1ccc(Cc2nnc(SCC(=O)N3CCCC(C)C3)o2)cc1 (centres undefined) | -1 | -5.9 | . | 5 | 2%
Cc1ccc(/C=N/N2CCCCC2)o1 | 1 | . | . | -1 | -2%
Cc1ccc(Cc2nnc(SCC(=O)Nc3ccccc3)[nH]c2=O)cc1 | . | 0.4 | . | 0 | .
CCOC(=O)C(CC)Sc1nnc2cc(C)c3ccccc3n12 (centres undefined) | 6 | 2.4 | -9 | 5 | -4%
O=C1NC2(CCCC2)C(=O)N1CC(=O)N(Cc1ccccc1)c1ccccc1 | . | 10 | . | 4 | .
CCc1nc(N2CCC3(CC2)OCCO3)c2nnn(Cc3ccccc3)c2n1 | -11 | 0.4 | . | -6 | 9%
O=C(c1cc(COc2c(F)cccc2F)on1)N1CCSCC1 | . | -1.6 | . | -4 | -1%
CC(=O)/C(=N\Nc1ccccc1)Oc1ccc(Br)cc1 | . | 12 | . | 7 | .
O=C(C1=C(O)C(=O)N(CC2CCCO2)C1c1ccccc1F)c1ccco1 (centres undefined) | . | 2.0 | . | 2 | .
CCOC(=O)C1C(=O)NC(N2CCOCC2)=NC1c1ccco1 (centres undefined) | 2 | -3.4 | 14 | 5 | -3%
CCOC(=O)c1c(C)cc(C)[nH]c1=O | -6 | -3.5 | . | 3 | -6%
COc1cccc2c1cc1c(=O)n(CC(=O)NCc3ccccn3)nc(C)n12 | . | 3.0 | . | -1 | .
COC(=O)c1cn(NC(=O)Cc2ccccc2Br)c(=O)c2ccccc12 | -1 | -1.2 | . | -5 | -5%
CC1(C)CC(=O)C=C(NCCN2CCN(C(=O)Nc3ccccc3)CC2)C1 | 5 | -2.6 | -10 | -9 | 0%
COCCNC(=O)/C(C#N)=C/c1c(N2CCN(c3cccc(Cl)c3)CC2)nc2c(C)cccn2c1=O | . | -41 | . | 1 | .
COc1ccc(S(=O)(=O)n2nc(-c3cc(OC)c(OC)c(OC)c3)cc2N)cc1OC | -12 | . | -35 | -6 | 2% | Arbovirus anti repeat=-10
CCCSCCCNC(=O)c1ccc(C)c(NC(=O)C2=C(C)OCCS2)c1 | . | 7.2 | . | 0 | .
CC1CN(c2nc3ccccn3c(=O)c2/C=C(\C#N)C(N)=O)CC(C)O1 (centres undefined) | . | -5.2 | . | -5 | 0%
O=C(NCCNc1ccc([N+](=O)[O-])cc1)c1ccccc1Br | -4 | . | 14 | 14 | 9%

Ordered by count of non-hydrogen atoms (lowest first): some entries from above.
SMILES | Arbovirus anti | RecA intein inh | YopH PTP inh | Mtb bLac sens | Mtb growth | others
CCOC(=O)c1c(C)cc(C)[nH]c1=O | -6 | -3.5 | . | 3 | -6%
CCOC(=O)C1C(=O)NC(N2CCOCC2)=NC1c1ccco1 (centres undefined) | 2 | -3.4 | 14 | 5 | -3%
CC1CN(c2nc3ccccn3c(=O)c2/C=C(\C#N)C(N)=O)CC(C)O1 (centres undefined) | . | -5.2 | . | -5 | 0%
CCCSCCCNC(=O)c1ccc(C)c(NC(=O)C2=C(C)OCCS2)c1 | . | 7.2 | . | 0 | .
CCc1nc(N2CCC3(CC2)OCCO3)c2nnn(Cc3ccccc3)c2n1 | -11 | 0.4 | . | -6 | 9%
COc1ccc(S(=O)(=O)n2nc(-c3cc(OC)c(OC)c(OC)c3)cc2N)cc1OC | -12 | . | -35 | -6 | 2% | Arbovirus anti repeat=-10

Later entries
SMILES | Arbovirus anti | RecA intein inh | YopH PTP inh | Mtb bLac sens | Mtb growth | others
CCOC(=O)Cc1csc(NC(=O)c2sc3nc4c(C)cc(C)cc4cc3c2N)n1 | -12 | -4.9 | -5 | 73 | 43%
COCCNC(=O)C(OC(=O)c1cc2oc(C)cc2n1C)C(C)C (centres undefined) | -6 | 3.4 | 9 | -4 | -6%
Cc1ccc(NS(=O)(=O)c2cn(C)c(=O)n(C)c2=O)c(C)c1 | . | -3.6 | . | 0 | .
NCC(O)c1ccc(O)cc1 (centres undefined) | 6 | -0.2 | 12 | 1 | -1%
Cn1cc(S(=O)(=O)NCCc2ccccc2)c(=O)n(C)c1=O | . | -2.6 | . | 2 | -2%
O=C(Cc1ncon1)Nc1ccc(F)c(F)c1F | . | 1.2 | . | 7 | 3%
O=C(NCc1cccs1)c1nn2cccnc2c1Cl | 2 | -0.8 | -30 | -14 | 9%
O=C(Nc1ccc2c(c1)OCCO2)C1CCN(S(=O)(=O)c2ccc3c(c2)OCCO3)CC1 | -4 | 0.2 | -20 | 5 | 0%
O=C(Cn1c(=O)c2sccc2n(Cc2ccc([N+](=O)[O-])cc2)c1=O)NCCc1ccccc1 | -2 | 1.9 | -7 | 3 | 3%
Cn1c(O)c(C(c2ccncc2)c2c(O)n(C)c(=S)n(C)c2=O)c(=O)n(C)c1=S | 2 | -0.1 | -30 | 10 | -3%
CC(NC(=O)c1cc2cc(F)ccc2[nH]1)c1ccccc1 (centres undefined) | . | 5.3 | . | -3 | .
COc1ccc(NC(=O)CN2CCCCC2)c([N+](=O)[O-])c1 | 4 | 0.2 | -37 | 0 | -2%
O=C1CC(N2CCN(Cc3ccc(Cl)cc3)CC2)C(=O)N1CCc1ccccc1 (centres undefined) | . | 4.8 | . | 3 | .
Cc1cccc(C(C)C)c1NC(=O)c1c(-c2ccccc2)noc1C | . | -1.0 | . | -4 | .
Cc1nc(C)c(-c2csc(NCCc3ccccc3)n2)s1 | 10 | 8.7 | 20 | 86 | 14%
O=C(CN1CCCCC1)NN(Cc1ccccc1)c1ccccc1 | -2 | . | . | 4 | 2%
Cc1nnc(SCC(=O)NC(=O)NC(C)C)s1 | 10 | -4.0 | . | -2 | 2%
CC(=O)Nc1ccc(NC(=O)COC(=O)c2cc([N+](=O)[O-])ccc2N2CCOCC2)cc1 | . | 0.5 | . | -13 | .
CN(C)c1ccc(NS(=O)(=O)c2ccc(Cl)cc2)cc1 | -13 | -2.7 | -4 | 2 | 8%
COc1ccc(C2CC(c3c(-c4ccccc4)c4cc(Cl)ccc4[nH]c3=O)=NN2S(C)(=O)=O)cc1OC (centres undefined) | 3 | -4.1 | 7 | 2 | 0%
O=C(Oc1ccc(N(Cc2cccs2)C2=NS(=O)(=O)c3ccccc32)cc1)c1ccco1 | -8 | 0.7 | -26 | 8 | -1%
Cc1cccc(-c2ccc(NC(=O)C3CCN(CC4CC4)CC3)cc2)c1 | . | 1.7 | . | -4 | .
CC1CC(=O)c2cnc(N3CCOCC3)nc2C1 (centres undefined) | 2 | 0.8 | -21 | -7 | 6%
CC12CCC(C(=O)N3CCCc4ccccc43)(CC1=O)C2(C)C (centres undefined) | 2 | 9.7 | -35 | -1 | -3% | Arbovirus anti repeat=5
Cc1c(N=Nc2c(O)[nH]c(=O)[nH]c2=O)c(=O)n(-c2ccccc2)n1C | 9 | 19 | . | -4 | 5%
COc1cc([N+](=O)[O-])ccc1NC(=S)Nn1cnnc1 | . | 3.2 | . | 1 | .
Cc1ccc(NC(=O)C(=O)NCCc2c[nH]c3ccccc23)c(C)c1 | -8 | 1.8 | . | 2 | 7%
O=C(Nc1ccccc1C(F)(F)F)N1CCCC(O)C1 (centres undefined) | -2 | -1.2 | -35 | -12 | -4%
Cc1ccccc1Nc1nnc(SCC(=O)c2c(N)n(C)c(=O)n(C)c2=O)s1 | 5 | 1.0 | . | -3 | 0%
COC(=O)C(O)(c1ccc(NC(=O)Oc2ccccc2)cc1)C(F)(F)F (centres undefined) | 2 | 2.4 | 1 | -8 | 1%
Nn1c(SCC(=O)N2CCCC2=O)nnc1-c1cccs1 | . | 2.0 | . | -18 | .
CCOCCCN(Cc1ccco1)S(=O)(=O)c1csc(C(N)=O)c1 | . | -4.7 | . | -3 | .
CCc1nnc(N/N=C/c2cccs2)n1N | -8 | -2.9 | -5 | 72 | 50%
COc1cc2c(cc1OC)C(c1ccc(Br)cc1)N(C(=O)c1ccccc1C(=O)O)CC2 (centres undefined) | . | 0.4 | . | -1 | .
CCOC(=O)c1c(C)nc2c(c1-c1ccccc1)C(=O)CCC2 | 1 | 1.7 | -23 | 1 | -5%
CSc1ccccc1NC(=O)CSc1nnc(CNC(=O)c2ccccc2F)n1C | . | -3.6 | . | -1 | .
CC1CCCCN1S(=O)(=O)c1ccc(-n2cnnn2)cc1 (centres undefined) | . | -3.6 | . | -5 | .
CSc1nsc(SCC(=O)Nc2ccccn2)n1 | 4 | -1.4 | -32 | -4 | 7%
COc1ccc(NC(=O)C2CCN(S(=O)(=O)c3cn(C)nc3C)CC2)cc1 | . | 0.5 | . | 10 | .
CN(NC(=O)c1ccco1)c1nc2ccccc2nc1C(F)(F)F | -8 | . | . | 0 | -16%
CCCCN1C2CCCC1CC(NC(=O)c1cccc(Cl)c1)C2 (centres undefined) | . | 0.1 | . | -4 | .
Cc1ccc(C)n1-c1ccncc1 | 6 | 0.8 | -4 | -11 | 2%
COc1ccc2c(COC(=O)c3n[nH]c4ccccc34)cc(=O)oc2c1 | -1 | -0.4 | -6 | -1 | 8%
COc1ccc(Cn2cc(C(=O)c3ccccc3)c(=O)c3cc(OC)ccc32)cc1 | -3 | -13 | -34 | 2 | .
CCc1nc2ccccc2c(=O)n1-c1cccc(OC)c1 | 8 | 8.0 | 0 | -2 | 12%
O=c1oc2ccccc2c2c1nc(C(F)(F)F)n2-c1ccccc1 | 12 | -1.0 | -6 | 95 | ?
CCOC(=O)CSc1nnc(CNC(=O)c2cccc(C)c2)n1-c1ccccc1OC | 1 | 0.9 | -53 | -2 | .
CCOC(=O)C1CCCN(C(=O)Cn2sc3nc(C)cc(C)c3c2=O)C1 (centres undefined) | -29 | -1.5 | -30 | -11 | 7% | Arbovirus anti repeat=-25
CCOC(=O)c1c(NC(=O)c2cc(C)on2)c2cc([N+](=O)[O-])ccc2n1C | . | 1.2 | . | -4 | -7%
CCn1c(CNC(=O)COc2ccc(C(C)C)cc2)nnc1SCC(=O)Nc1ccccc1C(C)C | 2 | 15 | -27 | -10 | -1%
Cc1cc(=S)n(-c2ccccc2)n1C | -1 | -1.8 | -46 | -1 | -2% | Arbovirus anti repeat=1
O=C(CNC(=O)c1cnccn1)Nc1ccc(F)c(F)c1F | 6 | -2.2 | -42 | -13 | . | Arbovirus anti repeat=4
COC(=O)c1nn(-c2cccc(C(F)(F)F)c2)c(=O)cc1Sc1ccccn1 | 3 | 2.8 | -53 | -16 | 1%
Cc1ccc(-c2csc3ncn(/N=C/N(C)C)c(=O)c23)o1 | -1 | -2.9 | -37 | -3 | -8%
O=[N+]([O-])c1cc2c(cc1/C=N\NS(=O)(=O)c1ccccc1)OCO2 | 0 | -2.1 | -5 | 5 | 2%
Clc1ccc(Oc2cnns2)c(Cl)c1 | 0 | -1.3 | 7 | -5 | 8%
Cc1nc2sc(C(c3ccccc3)N3CC(C)OC(C)C3)c(O)n2n1 (centres undefined) | 5 | -4.3 | 14 | 15 | -9%

Not all compounds are listed, so the mix of outcomes need not match the whole.
